Screens from PubChem.
HSD17B inh: inhibitors of human HSD17B10 dehydrogenase; Q99714; Potency, µM (titrated, usually from 57.1 µM), without a hit: top-dose activity change, negative = inhibition, most hits filed as inhibitors; recombinant HSD17B10, NADH fluorescence kinetic; many of its hits are not listed in these tables; AID 893; actives 7.6% (n = 75,000); active = well fitted inhibition curve with a large enough effect; inconclusive = small, poorly fitted or top-dose-only effect; inactive = no such curve, though single readings can be large or run the other way;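 also: the protocol describes HADH2 (HSD17B10) and not the HSD17B4 of the title; nearly all actives have a fitted effect of over 70% in size; most hits overshoot -100% by far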
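Activity followed as NADH fluorescence increase (ex 360, em 450 nm) every 30 seconds for 4 min, using final 90 uM beta-hydroxybutyryl CoA and 1 mM NAD+. Recombinant His-tagged enzyme, 20 nM, pH 9.0 Tris buffer, 15 min compound preincubation.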
Starred values were filed as active, the others as inactive; ? = inconclusive; & = joins results of further samples; [ ] = dose if it differs, or a comment. % is scaled to controls: 0 for no effect and ±100 for the full control effect; potency is read from the fitted curve at half-maximal effect.

SMILES	HSD17B inh
COC(=O)c1ccc(NC(=O)C2CCCN(S(=O)(=O)c3cnc[nH]3)C2)cc1 (stereo not drawn)	12%
O=C(CCn1c(=S)[nH]c2ccccc2c1=O)N1CCN(c2ccccn2)CC1	1%
CCOC(=O)c1cccc(Nc2nc(C)cc(C)n2)c1	9%
CC(=O)OC1CCC2(C)C3=C(CCC2C1(C)C)[C@@]1(C)CCC(C(C)CCC=C(C)C)[C@@]1(C)CC3 (stereo partly drawn)	3%
CCC(Sc1ncccc1C(=O)O)C(=O)N1CCOCC1 (stereo not drawn)	-1%
COc1ccc(Cl)cc1S(=O)(=O)N1CCN(C(=O)COc2ccccc2)CC1	4%
O=C(O)Cc1ccccc1C(=O)O	10%
CCCn1c(SCC(=O)Nc2ccccc2CC)nnc1C(C)C	27%
CCOC(=O)C1CCCN(c2ccc(NC(=O)c3snc4c(=O)[nH]cnc34)cc2)C1 (stereo not drawn)	-11%
CCCCSc1nnc([C@H](CC(C)C)NC(=O)OC(C)(C)C)o1	-3%
COc1nnc(-c2ccc(C(=O)N3C[C@@H]4C[C@H](C3)c3cccc(=O)n3C4)cc2)c2ccccc12	1%
CN(C)c1ncnc2c1ncn2CCn1cnc2c(N(C)C)ncnc21	5%[11.4 µM]
CCOC(=O)c1c2n(c3c(NCc4ccccc4)ncnc13)CCCC2	-3%
COc1ccc(-c2nc(N)n(C(C)=O)n2)cc1	-2%
Cc1ccc(N2C(=O)[C@@H]3Cc4ccccc4CN3C2=O)cc1	2%
CCOC(=O)C(NCCCO)c1ccccc1 (stereo not drawn)	14%
COc1cccc(CN(Cc2ccco2)C(c2ccc(F)cc2)c2nnnn2C(C)(C)C)c1 (stereo not drawn)	3%
CCOC(=O)C1CCCN(Cc2c(F)cccc2Cl)C1 (stereo not drawn)	3%
O=C(Cn1nnc(-c2ccc(Cl)cc2)n1)NCC1CCCCC1	2%
CCOC(=O)C(CC)n1nc(C)n2c(cc3sccc32)c1=O (stereo not drawn)	?
Cc1ccc(N(CC(N)=O)C2SC(=O)NC2=O)cc1 (stereo not drawn)	15%
c1ccc(CSc2nnc3c4ccccc4c4ccccc4c3n2)cc1	-1%[11.4 µM]
COc1cc(C2=Nc3c(c(C)nn3-c3ccccc3)P(=O)(N3CCOCC3)O2)cc(OC)c1OC (stereo not drawn)	-14%
CC(=O)NC(CCS(C)(=O)=O)C(=O)Nc1cccc(C)c1 (stereo not drawn)	13%
CCCOc1cccc(C(=O)Nc2nnn(CCC)n2)c1	11%
CC1CC(C)CN(c2oc(-c3ccccc3Cl)nc2C#N)C1 (stereo not drawn)	25µM*
CC(C)(C)OC(=O)NC(CCCCNC=O)C(=O)O (stereo not drawn)	-15%
O=C(CS(=O)(=O)c1ccccc1)N1CCCCCC1	-1%
N#CCCN1CCN(Cc2cc(-c3ccccc3)ccc2O)CC1	-9%
CCOC(=O)c1c(C)c(C(=O)N2CCc3ccccc3C2)c(C)n1CC	-2%
Cc1cc(NC(=O)CSc2nc(-c3cccs3)cc(C(F)(F)F)n2)no1	?
COc1ccc(CC(=O)Nc2ccc3c(c2)OCO3)cc1S(=O)(=O)N1CCOCC1	5%
CC1(O)CC2C(CC1O)C2(C)C (stereo not drawn)	-6%
COC(=O)c1[nH]c2cc(OC)c(OC)cc2c1NC(=O)c1cccc(OC)c1	7%
COc1ccc(Cc2nn3c(-c4cc(OC)c(OC)c(OC)c4)nnc3s2)cc1	-20%
COc1ccc(C(=O)Cn2nnc(-c3ccccc3NC(=O)c3ccco3)n2)cc1	32µM*
COCCn1c(SCCCc2ccccc2)nc2c1c(=O)[nH]c(=O)n2C	-11%
CCc1nnc(NC(=O)c2ccc(S(=O)(=O)NC3CCCCC3)cc2)s1	25%
COC(=O)n1c(=O)oc2cc(S(=O)(=O)N3CCOCC3)ccc21	12%
NC(=O)C1CCN(C(=O)C23CC4CC(CC(C4)C2)C3)CC1	0%

17 entries from above, comma-delimited.
Molecule,HSD17B inh
CC(=O)NC(CCS(C)(=O)=O)C(=O)Nc1cccc(C)c1 (stereo not drawn),13%
CCCOc1cccc(C(=O)Nc2nnn(CCC)n2)c1,11%
CC1CC(C)CN(c2oc(-c3ccccc3Cl)nc2C#N)C1 (stereo not drawn),25µM*
CC(C)(C)OC(=O)NC(CCCCNC=O)C(=O)O (stereo not drawn),-15%
O=C(CS(=O)(=O)c1ccccc1)N1CCCCCC1,-1%
N#CCCN1CCN(Cc2cc(-c3ccccc3)ccc2O)CC1,-9%
CCOC(=O)c1c(C)c(C(=O)N2CCc3ccccc3C2)c(C)n1CC,-2%
Cc1cc(NC(=O)CSc2nc(-c3cccs3)cc(C(F)(F)F)n2)no1,?
COc1ccc(CC(=O)Nc2ccc3c(c2)OCO3)cc1S(=O)(=O)N1CCOCC1,5%
CC1(O)CC2C(CC1O)C2(C)C (stereo not drawn),-6%
COC(=O)c1[nH]c2cc(OC)c(OC)cc2c1NC(=O)c1cccc(OC)c1,7%
COc1ccc(Cc2nn3c(-c4cc(OC)c(OC)c(OC)c4)nnc3s2)cc1,-20%
COc1ccc(C(=O)Cn2nnc(-c3ccccc3NC(=O)c3ccco3)n2)cc1,32µM*
COCCn1c(SCCCc2ccccc2)nc2c1c(=O)[nH]c(=O)n2C,-11%
CCc1nnc(NC(=O)c2ccc(S(=O)(=O)NC3CCCCC3)cc2)s1,25%
COC(=O)n1c(=O)oc2cc(S(=O)(=O)N3CCOCC3)ccc21,12%
NC(=O)C1CCN(C(=O)C23CC4CC(CC(C4)C2)C3)CC1,0%

Going on with the list.
SMILES	HSD17B inh
CCCc1nc(SCC(=O)c2ccc(OC)cc2)c2c(=O)n(C)c(=O)n(C)c2n1	8%
CCCc1ncc(C(=O)c2ccc(OC)cc2)n1C	-8%
CCc1cc2c(cc(C(=O)O)n2C)s1	?
CC(C)n1c(SCC(=O)Nc2ccc3c(c2)OCO3)nc2c1c(=O)n(C)c(=O)n2C	10%
CCOC(=O)CSc1nnc(-c2ccc(OC)cc2OC)o1	-1%
Cc1ccc(CNC(=O)c2cc3c(=O)n(C)c4ccccc4c3n2C)o1	?
NC1=NC2=C(CCCC2)C2(CCCCC2)S1	4%
COc1ccc(C(=O)CSc2nnc(-c3ccco3)n2CC2CCCO2)cc1 (stereo not drawn)	?
Cc1n[nH]c(C)c1N1C(=O)c2cccc3cc(Br)cc(c23)C1=O	-14%
CNC(=O)CSc1nnnn1CCCOC	6%
CN1C(=O)CSc2ccc(C(=O)O)cc21	4%
CN(Cc1ccccc1)C(=O)COC(=O)c1ccc2c(c1)OCO2	-12%
Cc1ccc2c(c1)-c1ccccc1S(=O)(=O)N2	?
Cc1ccc(C)c(N2CCN(C(=O)c3cc4ccccc4oc3=O)CC2)c1	-7%
O=C(CN1C(=O)COc2ccccc21)N(Cc1cccnc1)Cc1cccc(F)c1	8%
Cc1nc2cnc(N3CCOCC3)nc2n(CCc2ccccc2)c1=O	?
COC(=O)N(C)c1nc2ccccc2s1	10%
O=C(Nc1ccc(-n2nncc2-c2ccco2)cc1)c1cc2ccccc2oc1=O	?
CC1CCN(C(=O)CSc2nnc(Cc3cc(=O)[nH]c(=O)[nH]3)n2-c2ccc(Cl)cc2)CC1	2%
CC(C)C(=O)Nc1ccc(C(=O)NC2CCSC2=O)cc1 (stereo not drawn)	-21%
CCOC(=O)OCC1OC(C#Cc2ccccc2)C=CC1OC(=O)OCC (stereo not drawn)	-10%[11.4 µM]
O=c1nc2n(c3cc(Cl)c(S(=O)(=O)N4CCOCC4)cc13)CCCCC2	1%
O=C(CN1C(=O)c2ccccc2S1(=O)=O)Nc1ccccc1C(=O)NCc1ccco1	?
CCn1c(=O)n(CC)c2cc(S(N)(=O)=O)c(C)cc21	3%
Cn1cc(CC(=O)N2CCN(c3ccc(Cl)cc3)CC2)c2ccccc21	-12%
CC(C)(C)n1cnc2cc(NS(=O)(=O)c3ccccc3)ccc21	2%
Cc1ccc2ccccc2c1COC(=O)c1nonc1N	4%
Cc1cc(NC(=O)c2cccnc2)ccc1NC(=O)c1ccco1	-3%
COc1cc(-c2nnc(SCc3c(F)cccc3Cl)o2)cc(OC)c1OC	-12%
CCOC(=O)N1CCN(C(=O)C2COc3ccccc3O2)CC1 (stereo not drawn)	2%
CCOc1ccccc1-n1c(SCC(=O)NC)nnc1-c1ccco1	4%
Cc1ccc(-n2c3c(cc(C(=O)NCc4ccco4)c2=O)C(=O)CC(C)(C)C3)cc1	25µM*
CC(=O)/C(=N\N=C(N)N)c1ccccc1	7%[11.4 µM]
Cn1cccc1C(C(=O)NC1CCCCC1)N(C(=O)Cc1cccs1)c1ccc2c(c1)OCO2 (stereo not drawn)	7%
CC1=CC(=O)C2C(C)(C)CCC[C@@]2(C)[C@@]1(O)CCc1ccoc1 (stereo partly drawn)	?
CCN(CC)C(=O)COc1ccc2oc(C)c(C(=O)OC)c2c1	10%
CC1N(C)c2cc(NC(=O)c3ccco3)ccc2C1(C)C (stereo not drawn)	8%
O=C(C1CCN(c2nnc(-n3cccc3)s2)CC1)N1CCOCC1	2%
CC(C)(C)c1cc(O)c(C(C)(C)C)cc1O	10%
O=C1C2=C(Nc3ccccc3SC2c2ccco2)c2ccccc21 (stereo not drawn)	-15%
CC(C)(O)C#Cc1ccc(C(=O)NCc2cccs2)s1	-5%
COCCNc1ncnc2c1cnn2Cc1ccc(Cl)cc1	-3%
CCOC(=O)C(NC(=O)CC(C)C)(Nc1cc(C)on1)C(F)(F)F (stereo not drawn)	7%
COC(=O)c1sc(NC(=O)c2csc3c2CCCC3)nc1C	?
O=C(O)CN1CCN(Cc2ccccc2)C1=O	8%
CCC(C(=O)O)n1c(C(F)(F)F)nc2ccccc21 (stereo not drawn)	1%
COCCSc1nnc(NC(=O)Cc2cccs2)s1	-11%
CCCC(=O)N1CCc2cc(-c3nc(N)sc3C)ccc21	-6%
COc1ccc(-n2c(=O)c3ccccc3n(CC(=O)Nc3cc(C)on3)c2=O)cc1OC	5%
Cn1c(=O)c2c(SCC(N)=O)nc(CC(C)(C)C)nc2n(C)c1=O	2%

Carrying on:
SMILES	HSD17B inh
Cc1cnc(C(=O)OCC(=O)N2CCc3ccccc3C2)cn1	-3%
CCOC(=O)C1=C(C)OC(N)=C(C#N)C1c1cc(OC)c2c(c1)OCO2 (stereo not drawn)	-1%
Cc1ccc(C)c(NC(=O)c2ccc3c(c2)N(Cc2ccc(F)cc2)C(=O)CS3=O)c1 (stereo not drawn)	-1%
COC(=O)C1CCCN1C(C(=O)NC1CCCCC1)c1ccc(Cl)cc1 (stereo not drawn)	3%
COc1ccc(/C=N/c2nc3ccccc3n2C)cc1OC	5%
N#Cc1nc(-c2ccccc2Cl)oc1N1CCOCC1	32µM*
Cc1cc(=O)oc2cc(OCC(=O)N3CCCC(C)C3)ccc12 (stereo not drawn)	32µM*
CCCCNC(=O)Nc1cnn(CC)c1C(N)=O	4%
Cc1cnc(C(=O)OCC(=O)Nc2ccc(Cl)cc2)cn1	6%
COc1ccc(C2C3=C(CCCC3=O)Nc3nc4ccccc4n32)cc1OC (stereo not drawn)	16µM*
COc1ccc(-c2nnnn2-c2ccccc2OC)cc1	1%
CN(C)c1nc(Oc2ccc(/C=N/O)cc2)nc(N(C)C)n1	3%
Cc1ccc(C)c(N(C(=O)Cn2nnc(-c3cccs3)n2)C(C(=O)NC2CC2)c2ccc(C)o2)c1 (stereo not drawn)	-15%
CC1=C(C(=O)OC2CCCCC2)C(c2ccco2)n2ncnc2N1 (stereo not drawn)	-5%
Cn1c(=O)oc2cc(S(=O)(=O)Nc3cccc(C(=O)O)c3)ccc21	-6%
Cn1c(-c2ccc(C(C)(C)C)cc2)n[nH]c1=S	32µM*
Cc1cc2c(s1)CCCCC(=O)N2	10%
COCC(=O)N(Cc1cc2ccccc2[nH]c1=O)c1ccc(OC)cc1	5%
CCN1CCN(C(=O)c2ccc3c(=O)n(C4CCCC4)c(=S)[nH]c3c2)CC1	0%
Cn1c(=O)c2c(nc(CN3CCc4ccccc4C3)n2Cc2ccc(Cl)cc2)n(C)c1=O	1%
COc1ccc(OC)c(C2C=C(c3ccc(C)c(C)c3)Nc3nnnn32)c1 (stereo not drawn)	?
O=C(NCc1cccs1)C1CCN(c2ccc(S(=O)(=O)N3CCOCC3)cc2Cl)CC1	-7%
O=C(CSc1nccn1-c1cccc(Cl)c1)NC1CCCC1	8%
CCN(CC)CCN1C(=O)C(=O)/C(=C(/O)c2c(C)[nH]c(C(=O)OC)c2C)C1c1cccnc1 (stereo not drawn)	8%
COc1ccc(Cl)cc1C(=O)Nc1ccc(NC(=O)c2ccco2)cc1	32µM*
CC1CCC2C(=O)N3C(CCC(C)C3c3ccccc3Br)C(=O)N2C1c1ccc(C#CCN(C)C)cc1 (stereo not drawn)	14%[11.4 µM]
Fc1ccc(-c2nnc3ccc(N4CCCC4)nn23)cc1	25µM*
COC(=O)c1ccc(C23CC4(C2)[C@H](CN(C)[C@@H]4c2ccccc2)C3c2ccccc2)cc1 (stereo partly drawn)	-14%
Cc1[nH]nc(N=CC2=C(O)CC(c3ccco3)CC2=O)c1-c1ccccc1 (stereo not drawn)	?
COc1[nH]c2ccc(F)cc2c1C(=O)OCC1CCN(CCNS(C)(=O)=O)CC1	8%&-3%
CCOC(=O)C1C(=O)CC(=O)CC1CC(C)SCC (stereo not drawn)	3%
CC(=O)Nc1ccc(S(=O)(=O)N[C@H](C(=O)O)C(C)C)cc1	4%
COc1ccc2c(c1)CCc1c(C(=O)NC3CCCCC3)noc1-2	9%

The list is partial; rates above refer to the full screens.
